NPR1 antag: antagonists of human natriuretic peptide receptor Npr1; AID 1347048; actives 1.6% (n = 76,000); HEK293 hNpr1 GloSensor cGMP, ANP-stimulated luminescence; P16066; Potency, µM (top dose mostly 46.3 µM), inactives show top-dose activity change, negative = inhibition, hits mostly inhibitors; active = well fitted inhibition curve with a large enough effect; inconclusive = small, poorly fitted or top-dose-only effect; inactive = no such curve, though single readings can be large or run the other way;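 also: nearly all actives have a fitted effect of over 60% in size; nearly all hits also lower the signal before the agonist is added; a reference antagonist and vehicle were the controls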
Target sequence (P16066 whole entry, looked up): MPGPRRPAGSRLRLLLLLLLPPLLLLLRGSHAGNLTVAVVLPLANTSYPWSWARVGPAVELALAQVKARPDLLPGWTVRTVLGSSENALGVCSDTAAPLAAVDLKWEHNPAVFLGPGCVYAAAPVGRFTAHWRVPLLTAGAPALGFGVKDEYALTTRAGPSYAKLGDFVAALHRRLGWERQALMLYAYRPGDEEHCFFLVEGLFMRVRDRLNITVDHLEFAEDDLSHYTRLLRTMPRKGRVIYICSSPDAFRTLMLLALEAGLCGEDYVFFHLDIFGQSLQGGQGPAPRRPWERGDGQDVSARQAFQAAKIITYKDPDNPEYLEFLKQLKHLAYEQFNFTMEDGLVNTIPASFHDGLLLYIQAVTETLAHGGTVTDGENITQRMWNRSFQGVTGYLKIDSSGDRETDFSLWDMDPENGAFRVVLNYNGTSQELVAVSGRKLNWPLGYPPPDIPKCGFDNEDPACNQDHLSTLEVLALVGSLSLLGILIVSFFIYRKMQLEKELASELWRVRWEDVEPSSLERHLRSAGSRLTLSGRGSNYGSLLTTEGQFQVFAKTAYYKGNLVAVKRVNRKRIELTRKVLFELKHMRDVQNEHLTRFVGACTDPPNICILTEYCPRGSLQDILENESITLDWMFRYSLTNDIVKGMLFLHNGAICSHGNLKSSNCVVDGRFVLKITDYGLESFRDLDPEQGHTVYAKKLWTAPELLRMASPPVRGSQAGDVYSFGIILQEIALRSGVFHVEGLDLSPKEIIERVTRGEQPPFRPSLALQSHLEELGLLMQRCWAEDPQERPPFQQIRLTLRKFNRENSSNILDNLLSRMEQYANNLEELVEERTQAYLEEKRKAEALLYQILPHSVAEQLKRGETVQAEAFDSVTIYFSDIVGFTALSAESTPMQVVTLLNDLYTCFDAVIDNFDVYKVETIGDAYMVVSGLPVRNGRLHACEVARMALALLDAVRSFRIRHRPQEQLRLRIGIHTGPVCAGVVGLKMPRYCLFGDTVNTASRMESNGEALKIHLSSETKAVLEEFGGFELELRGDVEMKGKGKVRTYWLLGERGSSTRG
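HEK293 cells stably expressing human Npr1 and cGMP GloSensor pGS-40F, loaded 2 h with 2% GloSensor reagent, given compound 30 min at room temperature. Luminescence read before and 20 min after 0.1 nM hNppA.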
Numbers without * were called inactive; ? = inconclusive; [ ] = remark or other dose. % is scaled to controls: 0 for no effect and ±100 for the full control effect; potency is read from the fitted curve at half-maximal effect. Only part of the results is shown; the hit share may differ from the screen's.

NPR1 antag | compound
-1% | CCC(C)NC(=O)NCCc1noc(-c2ccncc2)n1 (configuration not stated)
0% | COC(=O)c1cc(C#N)c(N2CC[C@H](CO)[C@@H](O)C2)nc1C
-1% | CCCc1noc(CN2C(=O)NC(c3ccccc3OC)C3=C2COC3=O)n1 (configuration not stated)
3% | OCCOCCn1cnc(-c2ccccc2)c1COCc1ccccc1
3% | CN(C(=O)COc1ccc(F)cc1)C1CCc2nn(CC3CC3)c(=O)n2CC1 (configuration not stated)
-23% | Cc1cccc(CC(=O)N2CCC(Cc3nc(C4CCOCC4)no3)CC2)c1
-5% | CCCCn1nc(C2CCOCC2)nc1CCC(=O)N(C)C
-14% | Cc1cc(C)cc(C(=O)NC2CCN(c3cnn(CC4CC4)c(=O)c3)CC2)c1
0% | CN(C)c1nc2c(c(=O)[nH]1)CCN(Cc1cccc(Cl)c1)CC2
-19% | COc1ccc(OC)c(NC(=O)Cn2c(-c3ccccc3)nc(C)cc2=O)c1
1% | COc1ccc(-c2ccc3nc(-c4cc(C)cc(C)c4)oc3c2)c(OC)c1OC
1% | CCC(c1cccs1)N1C(=O)[C@H]2CN(S(=O)(=O)c3cccc(Cl)c3)C[C@H]2C1=O (some centres not stated)
0% | O=[S+]1([O-])NC2(CCN(Cc3ccccn3)CC2)CNc2ccccc21
0% | CN(C)c1nc2c(c(=O)[nH]1)CCN(Cc1cc(Cl)ccc1F)CC2
12% | O=C(c1cccnc1)N1CCCC1c1nc(CCOCC2CC2)no1 (configuration not stated)
6% | CN1CCC([C@@H]2CN(S(=O)(=O)c3ccc(Cl)s3)C[C@H]2C(N)=O)CC1
-8% | COC(=O)c1ccccc1C(=O)N1CCCC(N2CCN(c3ccc(F)cc3)CC2)C1 (configuration not stated)
-3% | COc1ccc(OC)c(NC(=O)C2(CCO)CCN(c3ncccn3)C2)c1 (configuration not stated)
-2% | COCCN1CCC2(CCC1=O)CCN(C(=O)Nc1cc(F)c(F)c(F)c1)CC2
21%[70.6 µM] | Cc1noc(C)c1[S+](=O)([O-])N1CCC(N2CCCOC2=O)CC1
-2% | COc1cc(C)c(CN2CCN3C(=O)CNC(=O)C3C2)cc1C(C)C (configuration not stated)
1% | CN1CCC([C@@H]2CN(S(=O)(=O)c3ccc4c(c3)CCC4)C[C@H]2C(N)=O)CC1
17%[70.6 µM] | N#CC1CCN(C(=O)C2CN(c3ccccc3)C(=O)N2)CC1 (configuration not stated)
0% | COc1cccc(CNC(=O)C2CCN(C(=O)c3nnn4c3COC(c3ccc(C)cc3)C4)CC2)c1 (configuration not stated)
-7% | O[C@@H]1C[C@@H](c2nc(-c3ccc4c(c3)OCO4)no2)N(Cc2ccc(-c3ccccn3)cc2)C1
13µM* | CN(C)c1cccc(C(=O)N2CCN(C(=O)c3nnn4c3COC(c3ccc(Cl)cc3)C4)CC2)c1 (configuration not stated)
-3% | COC(=O)C1=C(C)NC(=O)NC1c1ccc(O)cc1 (configuration not stated)
16µM* | CC(C)OC(=O)N1CCC(COc2ccc3c(cnn3CC[S+](C)(=O)[O-])c2)CC1
4% | COc1cccc(C(=O)Nc2ccc3c(N4CCOCC4)ncnc3c2)c1
-3% | Cc1nccn1CC(=O)N1CCCn2cc(-c3ccccc3F)nc21
-7% | Cc1ccc(C)c(-c2cc3c(=O)n(CCNC(=O)c4cccc(N(C)C)c4)ccn3n2)c1
16%[70.6 µM] | COCCn1cnc2ccc(-c3ccccc3Oc3ccccc3)nc2c1=O
0% | O=C(CC1CCCN(c2cn[nH]c(=O)c2)C1)N1CCN(c2cccc(Cl)c2)CC1 (configuration not stated)
1%[70.6 µM] | CC(C)NC(=O)CC[C@@H]1CNC(=O)[C@@H]2C[C@H](NCc3cccc(Cl)c3)CN12
-1%[70.6 µM] | COc1cccc(Nc2cc(C(=O)NCc3cccnc3)c3c(c2)ncn3C)c1
-13% | CCc1cc(=O)n(CC(=O)Nc2ccccc2)c(-c2ccccc2)n1
5% | COCCN(Cc1ccccn1)C(=O)c1ccc2c(c1)ncn2C
-4%[70.6 µM] | CN(C(=O)c1ccnc(-c2nnc3ccc(N4CCOCC4)nn23)c1)c1ccccc1
0% | COCC(=O)N[C@@H]1CN(S(=O)(=O)c2cn(C)cn2)CC[C@@H]1c1nc(C)no1
-1% | COc1ccc(CCC(=O)N2CC(c3nnc(C(C)C)o3)C3(CCOCC3)C2)cc1 (configuration not stated)
0% | O=C1CC(c2noc(C3CCC3)n2)CN1C1CCCCC1 (configuration not stated)
-1% | CC(C(=O)NCC1CCOCC1)c1ccccc1 (configuration not stated)
-21%[70.6 µM] | Cc1cc2cc(-c3c(C)noc3C)nc(-c3cccc([S+](C)(=O)[O-])c3)c2o1
2% | CCC(=O)N1CCCC(n2c(C)cnc2-c2cccnc2)C1 (configuration not stated)
2% | COCCn1nnnc1C1CC2(CCOCC2)C(=O)N1Cc1ccc(OC(C)C)cc1 (configuration not stated)
-5% | Cc1ccc(C(=O)N2CCN(c3nnc4cccc(C)n34)CC2)cc1F
0% | O=C(CC1CCOCC1)N1CCc2ccccc21
-1% | Cc1nc(C)c(CC(=O)N(Cc2ccccc2)Cc2scnc2C)s1
5% | Cc1cnc(C)c(-c2cc(O)c3c(c2)CN(C(=O)C2CCNC2)CCO3)n1 (configuration not stated)
3% | CCc1ccc(CNC(=O)[C@H]2CCC[C@H]2NC(=O)c2ccc(OC)cc2)cc1
5% | CC(C)(C)CNc1ccc(C(=O)N2CCC(CN3CCCC3=O)CC2)cn1
4%[70.6 µM] | N#Cc1cccc(CN2CC(CNc3ccccc3)C3(C2)CN(c2ccccc2)C3)c1 (configuration not stated)
? | COc1ccc(C(=O)NC[C@H]2Cn3c(-c4ccc(Cl)cc4)cnc3CO2)cc1
5% | NC1CC(c2cc(NCCN3N=C(c4ccccc4)CCC3=O)ncn2)C1 (configuration not stated)
0% | O=C(NC1CCCCC1)[C@@H]1C[C@@H](O)CN1C1CCN(C(=O)C2CCOCC2)CC1
-2%[70.6 µM] | COc1ccc2c(c1)nc1n2[C@@H](CNC2CCN(C(C)=O)CC2)COC1
0% | CNC(=O)N1C[C@@H](CN(C)C)[C@H](NC(=O)c2cc(C)cc(C)c2)C1
7% | Cc1ccc(C(=O)N2CCC(N3C(=O)C4(CCCC4)C3c3ccccc3)CC2)s1 (configuration not stated)
1% | CCN1CC(C(=O)NCc2ccc(-c3ccc(F)cc3)o2)CCC1=O (configuration not stated)
2% | COc1ccc(C(=O)N[C@@H]2CCC[C@@H]2C(=O)NCCc2cccs2)cc1

More compounds follow.
NPR1 antag | compound
0% | CS(=O)(=O)N1CCC2(CC1)SCC(=O)N2c1ccccc1
-1% | CCCCC(=O)Nc1ccc(C)cc1NC(=O)c1ccc(CN(C)C)o1
3% | O=C(NCCCc1ccccc1F)[C@@]12CNC[C@@H]1CN(Cc1ccccc1)C2
8% | COC1C(=O)N(C2CCN(S(=O)(=O)Cc3ccccc3F)CC2)C12CCOCC2 (configuration not stated)
? | O=C(Nc1ccc(Br)cc1)c1cnc(-c2ccc(F)cc2)nc1-c1ccncc1
7% | C=CCNc1ncnc2c1CCN(C(=O)Cc1c[nH]c(=O)[nH]c1=O)CC2
3% | CNC(=O)[C@H]1C[C@H](Oc2ccccc2)CN1C(=O)c1ccccn1
-11% | Cc1oc2c(c1C(=O)N1CCOCC1)CN(C(=O)c1ccnn1C)CC2
13% | CCn1ncc(N2CCCC(CC(=O)NCc3cccs3)C2)cc1=O (configuration not stated)
4% | COCCO[C@H]1C(=O)N(C2CCN(Cc3ccc(O)cc3)CC2)[C@H]1c1ccncc1
1% | Cc1cccc(C(=O)NC(C(=O)N2CCOCC2)C2CCN(C(=O)c3ccc4c(c3)OCO4)CC2)c1 (configuration not stated)
-2% | COCC1CN(C(C)=O)CC12CCN(Cc1ccccc1C)CC2 (configuration not stated)
-1% | COc1ccccc1-c1ccc(NC(C)c2cn(C)nc2C)nn1 (configuration not stated)
6% | O=C(Cn1nc2c(cc1=O)CCCC2)NCCn1ccc2ccc(F)cc21
-12% | COc1cccc(CCC(=O)N2CCC3(CC2)CC(O)CCO3)c1 (configuration not stated)
-1% | Cc1cnc(C(=O)N2CCC(N3C(=O)C(O)C34CCCCC4)CC2)cn1 (configuration not stated)
2%[70.6 µM] | CC(C)c1ccc(Nc2n[nH]c(C(O)c3ccccc3)n2)cc1 (configuration not stated)
3% | COc1ccc(C(=O)N2CC[C@H]3C(=O)NCCCCCCN(Cc4ccncc4)[C@@H]3C2)cc1
5% | COCCC(=O)N1CC(F)(F)C[C@H]1c1nc(-c2cccnc2)no1
-4% | CN(Cc1cccnc1)C1CN(S(=O)(=O)c2cn(C)cn2)C1

Exported as labelled records: entries from further up
Structure: O=C(NCCCc1ccccc1F)[C@@]12CNC[C@@H]1CN(Cc1ccccc1)C2
  NPR1 antag: 3%

Structure: COC1C(=O)N(C2CCN(S(=O)(=O)Cc3ccccc3F)CC2)C12CCOCC2 (configuration not stated)
  NPR1 antag: 8%

Structure: O=C(Nc1ccc(Br)cc1)c1cnc(-c2ccc(F)cc2)nc1-c1ccncc1
  NPR1 antag: ?

Structure: C=CCNc1ncnc2c1CCN(C(=O)Cc1c[nH]c(=O)[nH]c1=O)CC2
  NPR1 antag: 7%

Following part:
NPR1 antag | compound
? | CC(C)(C)CN1CCNc2cc(Nc3ccccc3)ncc2C1
0% | COCCn1c(CO)nnc1C1CC(NC(=O)c2cccc(C)c2Cl)C1 (configuration not stated)
-6% | COCCNC(=O)c1cn2ccnc(-c3ccc(C)cc3)c2n1
2% | CCc1cn[nH]c1C1CCCN(C(=O)c2ccc(Cn3nnnc3C)cc2)C1 (configuration not stated)
2% | COCCNc1nccc(C2(c3ccccc3Cl)CCNCC2)n1
-2% | O=C(Cn1ccn2nc(-c3ccc(F)cc3)c(CO)c2c1=O)NCc1ccccc1
3%[70.6 µM] | CC1CCN(C(=O)C[C@@H]2O[C@H](CNC(=O)C3CC3)[C@@H](O)[C@H]2O)CC1
6% | Cc1cnc(CC2CCCN(C(=O)NCC(C)C)C2)n1Cc1ccc(F)cc1 (configuration not stated)
2% | CC(=O)Nc1cccc(C(=O)N2CC[C@@H](c3sccc3C)[C@H](O)C2)c1
2%[70.6 µM] | CN1CCC(N2C[C@@H]3C[C@H]2C(=O)N(Cc2cccnc2)c2ccccc2O3)CC1
2% | O=C(CN1C(=O)NC2(CCOCC2)C1=O)Nc1ccc2c(c1)OCO2
-4% | COc1ccccc1CCC(=O)N1CCCC(Nc2ccc(F)cc2)C1 (configuration not stated)
3% | CCCN1C(=O)Cc2cc(C(=O)NC3CC3)ccc21
-8% | Cc1ccc(-c2nnc(C3CN(C(=O)Cc4ccc(F)cc4)CC34CCOCC4)o2)cc1 (configuration not stated)
-4% | COc1cccc(-c2cc(C(=O)NCC34CCC=C3N(C)C(=O)CC4)[nH]n2)c1 (configuration not stated)
2% | COc1ccc(Cn2c3c(c(=O)n2Cc2ccccc2)CCN(C(=O)c2cccc(N(C)C)c2)C3)cc1
-15% | Cc1ccccc1-c1onc(C)c1C(=O)NCc1ccc(Cl)cc1
-10% | CNC(=O)[C@@H]1CN(C(=O)c2nn(C)c3ccccc23)C[C@H]1COC
-4% | Cc1ccc(CNC(=O)N2CCc3nnc(C4CC4)n3CC2)cc1
-13%[70.6 µM] | COCCNc1ncc(-c2ccsc2)c2c1OCC2

An excerpt from above in order of the NPR1 antag value, largest number first:
NPR1 antag | compound
6% | Cc1cnc(CC2CCCN(C(=O)NCC(C)C)C2)n1Cc1ccc(F)cc1 (configuration not stated)
3% | CN(C(=O)COc1ccc(F)cc1)C1CCc2nn(CC3CC3)c(=O)n2CC1 (configuration not stated)
-1% | CC(C(=O)NCC1CCOCC1)c1ccccc1 (configuration not stated)
-4% | Cc1ccc(CNC(=O)N2CCc3nnc(C4CC4)n3CC2)cc1
-13% | CCc1cc(=O)n(CC(=O)Nc2ccccc2)c(-c2ccccc2)n1

(continued)
NPR1 antag | compound
? | Cc1ccc(NC(=O)c2ccc3c(c2)N(S(C)(=O)=O)CC3)cc1
1% | CCCS(=O)(=O)N(C)C1CCc2nn(CC3CC3)c(=O)n2CC1 (configuration not stated)
2% | CCc1noc(-c2cn(C3CCN(C(=O)c4cc(F)ccc4F)C3)nn2)n1 (configuration not stated)
-2% | CC(C)CCN1CCOc2ccc(C(=O)NCc3ccccc3F)cc2C1
1% | Cc1ccccc1C(=O)NCc1nnc2ccc(-c3ccccc3)nn12
-1% | O=C(Nc1cccc(-c2nnc3n2CCCC3)c1)c1ccc[nH]c1=O
3% | COC1CCOC2(CCN(C(=O)CCc3nc4ccccc4s3)CC2)C1 (configuration not stated)
-13%[70.6 µM] | O=C1C2CN(Cc3ccncc3Cl)CCC2OCCN1Cc1ccccc1F (configuration not stated)

Gathered by group: the entries above with a tert-butyl group.
NPR1 antag | compound
5% | CC(C)(C)CNc1ccc(C(=O)N2CCC(CN3CCCC3=O)CC2)cn1
? | CC(C)(C)CN1CCNc2cc(Nc3ccccc3)ncc2C1

High-throughput results deposited in PubChem by National Center for Advancing Translational Sciences (NCATS).
